Compound activity (PubChem BioAssay)
Bfl-1 A1 inh: inhibitors of the anti-apoptotic protein A1, read as caspase activation; MEF A1-2A-BIM cells, Caspase-Glo 3/7 luminescence, 3 h; percent of clofoctol response, vehicle zero; caspase activation, % (test concentration not listed); hit rate 0.066% among 330,000; AID 2462;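 active = over half of replicate activation scores above 10%, or exactly half above 10 with the replicate mean above 10; inconclusive = replicate mean below 10 yet half the replicates above 10; inactive = over half of replicates below 10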;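 note: wells of about 30 µL received 50 nL stock; many hits fall short of the cut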
LANA-H2B inh: blocks KSHV LANA binding to histone H2A/H2B; cell-free LANA-H2A/H2B peptide, fluorescence polarization; inhibition, % (concentration not given with the values); hit rate 0.6% among 320,000; in the data active = inhibition mostly above about 10%, no sharp cut-off; inactive = mostly below about 6.7%;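 note: stock transfer was 7.5 nL into about 10 µL; 0% = median of vehicle wells and 100% = median of positive control wells; one replicate is shown; the record names a cut of 25% in any replicate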
Vif TR-FRET: inhibitors of Vif binding to APOBEC3G peptide, primary screen, biochemical, TR-FRET, GST-Vif 1-94, biotin-A3G peptide, dose response retest (AID 1117319); TR-FRET GST-Vif / biotin-A3G peptide binding; higher % means a stronger effect; test concentration not given here; strong numbers were not always called active; inhibition, %, or IC50 in µM where a hit was titrated; hit rate 0.57% among 260,000;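 active = above the screen mean plus three standard deviations and confirmed in dose response; inconclusive = results disagree or hit not tested in dose response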;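 note: Vif residues 1-94 fused to GST binding biotinylated APOBEC3G peptide 110-148; 0% = full assay without inhibitor and 100% = GST in place of GST-Vif; retest series ran down from 100 µM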
E coli growth: blocks Escherichia coli growth; OD600, 23 h; stronger effect = lower value; OD600 absorbance (test concentration not listed); hit rate 0.21% among 330,000;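 active = OD600 absorbance below the run mean of sample wells minus 3.6 SD, in any replicate, cut at about 0.56 in these data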;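 note: stock transfer was 300 nL into about 60 µL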
Beta2AR agonist: activates human beta-2 adrenergic receptor causing internalization; P07550; Am2.2-beta2AR cells, FAP receptor internalization, flow cytometry; reference of the scale not given here; response, % (no concentration beside the values); hit rate 0.43% among 340,000;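 active = response above a set limit, near 3 SD of response in nonfluorescent compounds, cut at about 42% in these data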;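 note: stock transfer was 100 nL into about 11 µL; a reference agonist was the positive control; negative values mostly stem from fluorescent compounds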
Target sequence (P07550 whole entry, looked up): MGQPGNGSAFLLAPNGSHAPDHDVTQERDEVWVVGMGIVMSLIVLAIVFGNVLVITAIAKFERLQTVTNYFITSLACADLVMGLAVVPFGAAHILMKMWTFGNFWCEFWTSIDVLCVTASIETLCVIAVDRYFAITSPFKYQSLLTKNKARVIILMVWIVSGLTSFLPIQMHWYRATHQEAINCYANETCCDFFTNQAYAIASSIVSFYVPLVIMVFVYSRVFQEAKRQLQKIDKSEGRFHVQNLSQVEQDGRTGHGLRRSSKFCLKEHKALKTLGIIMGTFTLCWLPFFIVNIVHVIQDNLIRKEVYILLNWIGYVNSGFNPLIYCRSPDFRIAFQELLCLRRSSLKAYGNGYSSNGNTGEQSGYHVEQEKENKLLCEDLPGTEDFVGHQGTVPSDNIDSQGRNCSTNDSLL
HNF4A DNA FP: change in binding of human HNF4 alpha to DNA; HNF4a-FITC DNA binding, fluorescence polarization, 1 h; P41235; activity change, % at 10 µM; hit rate 0.3% among 360,000; in the data active = activity change above about 30%, passing the limit was not always enough;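 note: controls were the assay level and a saturating level of protein; the project sought stronger binding though the title names inhibitors; some compounds called inactive have numbers as strong as hits; positive values seem to mean higher polarization but the record does not say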
UCH37 DUB inh: human UCH37 deubiquitinating enzyme inhibition | Q9Y5K5 | purified proteasome/UCH37, Ub-AMC cleavage fluorescence | inhibition, % (no concentration beside the values) | hit rate 0.33% among 330,000 | AID 588478;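 active = mean of two replicates above 20%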;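 note: 0% = compound-free wells with enzyme and 100% = wells lacking proteasome; stock transfer was 100 nL into about 20 µL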
Target sequence (Q9Y5K5 whole entry, looked up): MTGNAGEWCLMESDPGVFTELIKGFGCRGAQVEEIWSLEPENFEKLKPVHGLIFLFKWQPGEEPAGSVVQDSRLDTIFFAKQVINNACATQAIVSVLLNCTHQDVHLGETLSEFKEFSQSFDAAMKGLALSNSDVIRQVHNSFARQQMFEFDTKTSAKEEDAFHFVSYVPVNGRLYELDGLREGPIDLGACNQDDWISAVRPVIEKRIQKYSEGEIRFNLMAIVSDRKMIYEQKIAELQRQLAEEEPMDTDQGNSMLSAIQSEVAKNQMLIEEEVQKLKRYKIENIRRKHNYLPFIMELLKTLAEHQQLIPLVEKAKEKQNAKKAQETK
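assay system = human UCH37 enzyme supplied as purified proteasome complex | amount = proteasome at 0.15 nM in the dispensed enzyme solution | schedule = 30 min compound-proteasome preincubation then 25 min substrate reaction, room temperature | measured by = fluorescence, ex 355 nm, em 460 nm | benchmarks = no-proteasome wells (full inhibition) and compound-free wells (no inhibition)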
Numbers without * were called inactive; ? = inconclusive; . = not tested or not shown; & = joins results of further samples. Hits appear at their usual frequency; about 2.1% have a hit in one of these screens.

SMILES	Bfl-1 A1 inh	LANA-H2B inh	Vif TR-FRET	E coli growth	Beta2AR agonist	HNF4A DNA FP	UCH37 DUB inh
CC(C)(C)C(=O)N(CCN(C(=O)C(C)(C)C)c1ccccc1)c1ccccc1	-0.5	2.6	-5%	0.71	-5	-0.1	-0.5
COc1ccc2oc(-c3cccc(NC(=O)CSc4ccc(Cl)cc4)c3)nc2c1	-6.3	-8.9	.	0.7	-4	-2.1	-98
O=C(Nc1scc(-c2ccc(Br)cc2)c1C(=O)O)c1ccccc1F	-1.9	7.7	.	0.66	-1	-2.4	2.0
CN(C)CCNC(=O)c1cccc(S(=O)(=O)Nc2ccc(F)cc2)c1	0.1	1.5	5%	0.68	4	6.0	2.0
CN(C)C(CN1C(=O)C2CC=CCC2C1=O)c1cn(C)c2ccccc12 (stereo unspecified)	0.8	-0.9	2%	0.7	12	0.8	-2.5
Cc1cc(-n2nc(C)cc2C)nc(NS(=O)(=O)c2ccccc2)n1	0.2	-1.6	8%	0.72	-6	0.7	6.1
CC(C)CCNC(=O)C(c1ccncc1)N(CC1CCCO1)C(=O)Cn1nnc(-c2ccc(F)cc2)n1 (stereo unspecified)	0.9	-2.7	2%	0.69	3	4.3	-0.7
COC(=O)C1=C(C)N(C)C(=O)NC1c1ccc(O)c(Cl)c1 (stereo unspecified)	0.2	0.0	3%	0.66	-3	4.9	-1.6
CCOC(=O)c1nnn(-c2nonc2N)c1-c1ccc(OC)cc1	1.4	-1.5	-13%&-2%	0.69	-4	-3.5	0.2
Cc1cccc(NC(=O)CSc2nc(C)nc3c2c(=O)n(C)c(=O)n3C)c1	.	.	-1%	0.74	7	-3.0	4.7
O=C(Nc1cccc(-n2cccn2)c1)C1CCCN(Cc2ccccc2F)C1 (stereo unspecified)	-0.6	-1.0	1%	0.68	-11	0.0	3.6
COc1cc(NC(=O)CSc2nnc(C)s2)cc(OC)c1	0.5	-1.4	-1%	0.75	1	1.9	-0.5
O=C(CCNC(=O)c1ccco1)Nc1ccc(F)c(Cl)c1	0.5	1.0	.	0.67	3	-2.1	-1.7
CC(C)(C)NC(=O)CSc1nnc(-c2ccco2)n1Cc1ccco1	-1.2	-9.0	29%	0.67	5	-0.6	2.0
COc1ccccc1NC(=O)CCC(=O)Nc1nnc(C(F)(F)F)s1	-0.2	3.3	2%	0.7	-2	-3.6	3.4
Cc1c(NC(=O)COC(=O)c2cc(-c3ccc(-c4ccccc4)cc3)nc3ccccc23)c(=O)n(-c2ccccc2)n1C	-1.1	5.3	.	0.69	-7	-5.3	-155
COc1cccc(C(=O)OCC(=O)NC(=O)NC2CCCC2)c1O	-6.1	-2.2	15%	0.66	-1	1.0	4.9
CC1=CCC2C(=O)N(c3cc(C)on3)C(=O)C2C1 (stereo unspecified)	0.3	1.3	1%	0.78	-1	3.4	-2.5
CCOC(=O)CNC(=O)c1sc(NC(=O)c2ccccc2)nc1C	-4.2	-2.6	0%	0.68	-4	-2.2	6.7
CC(=O)c1ccc(NCCC(=O)c2ccccc2)cc1	-1.4	-3.1	-2%	0.72	-2	-0.5	5.1
O=C(NCCCN1CCCC1=O)Nc1ccccc1F	-0.5	-2.4	-4%	0.7	-11	-0.4	2.7
Cn1cc(CCC(=O)NC2CC(C)(C)Cc3c2cnn3-c2ccc(F)cc2)cn1 (stereo unspecified)	.	.	.	0.69	5	4.2	1.1
COc1ccc(C(=O)NCCONC(=O)c2ccc(OC)cc2)cc1	0.0	-1.8	.	0.74	5	-1.8	1.9
COc1cccc(C2C(C(=O)c3ccc(C)o3)=C(O)C(=O)N2CCN2CCOCC2)c1 (stereo unspecified)	-0.4	9.5	-6%	0.68	-4	1.6	8.9
COc1ccc(CC(=O)Nc2ccc(S(=O)(=O)NCC3CCCO3)cc2)cc1 (stereo unspecified)	-0.3	9.2	7%	0.66	-12	-0.2	3.5
Cc1ccc(CSc2nnc(-c3ccco3)n2N)cc1	0.7	0.7	1%	0.66	-8	0.5	1.2
CCC(=O)Nc1cccc(-c2nc3ncccc3o2)c1C	-2.2	-2.6	.	0.68	-4	0.3	-1.4
O=C(N/N=C/c1cn(-c2cccs2)nc1-c1ccccc1)c1ccc(O)cc1	-1.2	1.7	17%	.	-5	-1.5	.
O=C(c1cccnc1)N1CCN(S(=O)(=O)c2cccs2)CC1	-0.6	-1.6	-6%	0.72	3	-0.5	-0.7
CCn1c(=O)n(CCc2ccccc2)c(=O)c2c3c(sc21)CCCC3	-0.2	-1.9	3%	0.74	-4	3.6	2.1
CCOc1ccc(C(=O)NCC2CCCO2)cc1OCC (stereo unspecified)	0.8	1.5	2%	0.65	-1	-0.4	-1.3
CC(=O)Nc1nnc(SCC(=O)Nc2nc(C)cs2)s1	0.2	5.6	.	0.68	5	0.8	3.0
CCOC(=O)c1c(C)oc2ccc(NS(=O)(=O)c3cccs3)cc12	0.4	0.5	-2%	0.67	0	1.1	2.7
COc1ccc(C(CC(=O)N2CCCC(C)C2)c2c(O)cc(OC)cc2OC)cc1 (stereo unspecified)	1.1	1.8	.	0.69	5	3.0	3.7
Cc1ccc(NC(=O)CN(C)C(=O)COc2cc(F)ccc2[N+](=O)[O-])cc1	0.6	11	1%	0.7	-7	0.4	3.1
CN1CCN(c2ccc(NC(=O)c3ccc4c(c3)OCCO4)cc2)CC1	-0.4	2.2	1%	0.68	7	2.4	5.4
CCC(=O)Nc1ccc2c(c1)C(=O)N(C1CCCCC1)C2=O	0.0	-2.0	-3%	0.7	-7	0.7	-179
Cc1nnc(SCc2ccc(Cl)cc2)n1CC1CCCO1 (stereo unspecified)	0.6	3.4	-4%	0.72	0	-1.5	2.5
CCC1=C(C)CN(C(=O)NCCc2ccc(S(=O)(=O)NC(=O)NC3CCC(C)CC3)cc2)C1=O (stereo unspecified)	0.1	-7.0	.	0.67	-7	5.5	5.3
O=C(COC(=O)Cc1cccc(C(F)(F)F)c1)NCc1ccco1	.	.	.	0.69	-1	-18	-0.1

Sorted by length of the SMILES (low to high): part of the list above.
SMILES	Bfl-1 A1 inh	LANA-H2B inh	Vif TR-FRET	E coli growth	Beta2AR agonist	HNF4A DNA FP	UCH37 DUB inh
O=C(COC(=O)Cc1cccc(C(F)(F)F)c1)NCc1ccco1	.	.	.	0.69	-1	-18	-0.1
CCOC(=O)c1c(C)oc2ccc(NS(=O)(=O)c3cccs3)cc12	0.4	0.5	-2%	0.67	0	1.1	2.7
Cc1ccc(NC(=O)CN(C)C(=O)COc2cc(F)ccc2[N+](=O)[O-])cc1	0.6	11	1%	0.7	-7	0.4	3.1

More compounds follow:
SMILES	Bfl-1 A1 inh	LANA-H2B inh	Vif TR-FRET	E coli growth	Beta2AR agonist	HNF4A DNA FP	UCH37 DUB inh
Cc1onc(-c2ccccc2Cl)c1C(=O)Nc1ccccc1C(=O)NC(C)C	-0.3	-1.4	13%	0.66	-1	-0.3	2.5
O=c1c2ccccc2nc(SCc2cccc(F)c2)n1-c1cccc(S(=O)(=O)N2CCCC2)c1	0.3	2.2	.	0.72	-5	1.9	4.7
COc1ccc(C(=O)Nc2cc(S(=O)(=O)N3CCCC3)ccc2Cl)cc1	0.3	-0.1	-7%	0.72	2	0.1	-0.1
COc1ccc(-c2nc(N)ncc2-c2ccccc2OC)c(O)c1	0.4	-1.1	-3%	0.67	-2	-0.9	-1.0
O=C(Nc1ccc(Cn2cccn2)cc1)c1ccc(COc2cccc(Br)c2)cc1	-3.5	3.7	-5%	0.8	3	2.8	0.3
Cc1nn(C)c(C(=O)NNC(=S)NC2CCCCC2)c1Br	-0.7	3.6	3%	0.59	-1	2.5	1.5
Cn1nc(C(F)(F)F)c(C(=O)Nc2ccc(C(F)(F)F)cc2)c1Cl	-0.5	-4.0	25%	0.7	-3	1.0	3.7
Cc1cc(C)c(S(=O)(=O)c2ccc(Cl)cc2C)c(Cl)n1	0.5	0.4	4%	0.69	-5	-4.3	3.0
COc1ccc(/C=C/c2cc(=O)c3cc(Cl)ccc3o2)cc1	0.1	-3.9	0%	0.74	-18	1.6	-39
CC(C)=CCC12Oc3cc(O)ccc3C1(O)Oc1cc(O)c([C@H]3C=C(C)CC(c4ccc(O)cc4O)[C@H]3C(=O)c3ccc(O)cc3O)c(O)c1C2=O (stereo partly specified)	-0.3	1.7	.	0.66	.	.	3.4
CC(C)Oc1cccc(C(=O)NC(=S)N2CCN(c3ccc(C(F)(F)F)cc3[N+](=O)[O-])CC2)c1	0.4	-2.1	-11%&-4%	0.76	8	3.2	5.1
CCc1c(C(=O)OC)nnc2cc(C)nn12	0.0	1.9	-2%	0.71	15	-1.0	7.6
Cc1cc(C)c(NC(=S)NC(NC(=O)c2ccccc2)C(Cl)(Cl)Cl)c(C)c1 (stereo unspecified)	1.0	1.9	-1%	0.71	10	-1.9	2.0
O=C(O)c1ccc(Cl)c(S(=O)(=O)N2CCCC2)c1	0.0	-0.2	13%	0.68	-2	-6.2	3.6
CCN1C(=O)CS/C1=N\c1nccs1	0.9	-2.1	4%	.	2	2.7	.
COCCn1c(C)cc(C(=O)COc2ccc(C)nc2[N+](=O)[O-])c1C	0.6	0.9	?	0.69	-1	-2.6	4.3
CCN(CC)CCC(=O)N1c2ccccc2CCc2ccc(NC(=O)OC)cc21	0.2	1.9	.	0.72	17	2.1	3.0
CC(C)c1ccc(/C=C(\NC(=O)c2ccccc2)C(=O)NCCCN2CCOCC2)cc1	0.2	1.6	0%	0.68	1	1.7	2.4
Cc1ccsc1C1C(C(=O)O)c2ccccc2C(=O)N1C (stereo unspecified)	0.9	-2.2	1%	0.72	13	7.0	0.1
Cc1ccc(-n2ncc3c(N4CCC5(CC4)OCCO5)ncnc32)c(C)c1	0.9	-5.2	-1%	0.72	17	1.6	3.9
CCCCN(CC)c1nc(N)c2c(N)nc(OCC)cc2c1C#N	-0.1	1.0	14%	0.66	3	7.7	-125
COCCn1c(SCC#N)nnc1-c1ccc2c(c1)OCO2	-0.1	6.4	-2%	0.64	0	-2.2	6.5
COc1ccc(OC)c(NC(=O)c2cc3c(=O)n4ccccc4nc3n2C)c1	0.2	4.6	8%	0.74	-6	-3.1	-43
Cc1ccccc1NCC(=O)N/N=C\C=C\c1cccc([N+](=O)[O-])c1	1.0	-1.0	1%	.	6	2.9	.
CC(=O)OC(Cn1ccnc1)c1ccccc1 (stereo unspecified)	0.3	2.4	8%	0.74	0	0.1	4.4
Cc1cccc(C)c1-n1c(C)nn(-c2ncc(C(F)(F)F)cc2Cl)c1=O	0.5	-2.3	.	0.74	-5	2.5	3.4
C=CCN(CC=C)S(=O)(=O)c1ccc(NC(=S)NC(=O)/C=C/c2ccccc2)cc1	-0.3	-1.1	-7%	0.79	3	1.1	11
CCOC(=O)C1CCN(C(=O)C2CCN(S(=O)(=O)c3cc(Cl)ccc3Cl)CC2)CC1	1.6	-9.0	63%&-4%	0.67	-1	-4.4	1.6
O=C(Nc1ccc2c(c1)OCO2)c1ccc(=O)[nH]n1	-0.5	0.8	?	0.69	1	-3.3	-0.3
Cc1ccccc1Cn1nnc(-c2cccc(C(=O)O)c2)n1	-5.6	6.5	-3%	0.72	1	-1.2	-0.5
COc1ccccc1N1CCN(C2CCCN(S(=O)(=O)c3cccc(Cl)c3)C2)CC1 (stereo unspecified)	3.0	-1.7	4%	0.64	-2	0.9	1.6
COc1ccc(N2CCN(C(=O)COC(=O)CCOc3cc(C)ccc3C)CC2)cc1	-0.5	0.8	7%	0.72	-3	-3.0	4.8
COc1ccc2c(c1)-c1c(ssc1=S)C(C)(C)N2C(=O)CSC1=NCCS1	0.1	-1.5	-1%	0.74	-4	-0.6	3.3
